# Screening results: PubChem BioAssay, Broad Institute
# Ecoli rRNA inh: reduced GFP signal of wild-type E. coli, primary screen, bacterial rRNA inhibitor project, GFP/RFP fluorescence, OD600, single point. E. coli WT GFP vs humanized-ribosome RFP mutants, 24 h; active compounds read low; DMSO median 0, no signal -100. GFP signal change (wild-type ribosome), % (test concentration not listed). actives 1.6% (n = 350,000). AID 720706, 2013;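 active means significant combined selectivity score with lowered wild-type GFP, culture density cut under 30%, mutant RFP and density less affected; inactive means any of these conditions unmet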; further: one replicate is shown; some compounds called inactive have numbers as strong as hits
# ALR inh: inhibitors of human ALR sulfhydryl oxidase, primary screen, biochemical, H2O2 detection, HRP-luminol luminescence, single point | AID 485317, 2010 | actives 3.8% (n = 290,000) | inhibition, % (test concentration not listed) | purified ALR, DTT oxidation;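 active means mean and each replicate at 75% or more; inconclusive means only one of the two met; inactive means neither met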;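 further: stock transfer was 7.5 nL into about 7.5 µL; 0% = neutral wells and 100% = wells with inactivated enzyme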
# Target sequence (P55789 whole entry, looked up): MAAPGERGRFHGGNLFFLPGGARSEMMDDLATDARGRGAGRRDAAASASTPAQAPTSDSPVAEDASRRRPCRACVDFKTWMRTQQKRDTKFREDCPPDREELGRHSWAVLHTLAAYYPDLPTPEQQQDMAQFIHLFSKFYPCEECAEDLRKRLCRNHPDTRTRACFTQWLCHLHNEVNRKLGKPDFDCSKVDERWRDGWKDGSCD
# FGF22 binding: binders of human FGF22 protein, primary screen, FGF22 synaptogenesis inhibitor project, biophysical, thermal shift, single point; Fibroblast growth factor 22 (Homo sapiens), Q9HCT0; recombinant FGF22 thermal shift, SYPRO orange fluorescence; percent of sucrose octasulfate shift, DMSO zero; calls only at 9.99 µM; actives 1.5% (n = 340,000); AID 651658, 2012;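 active means melting point raised past a set limit in the mean and every replicate; inconclusive means no clear call; three in four hits are not shown here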
# Target sequence (Q9HCT0 whole entry, looked up): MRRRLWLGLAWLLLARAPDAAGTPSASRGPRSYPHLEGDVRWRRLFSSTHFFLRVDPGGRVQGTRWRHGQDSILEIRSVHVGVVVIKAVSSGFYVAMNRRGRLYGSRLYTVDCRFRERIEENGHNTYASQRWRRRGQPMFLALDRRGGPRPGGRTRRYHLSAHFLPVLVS
# T cruzi inh: inhibitors of intracellular T. cruzi growth, primary screen, luminescence, NIH3T3 host cells | actives 1.4% (n = 300,000) | inhibition, % (concentration not given with the values) | T. cruzi beta-gal in NIH3T3, 90 h;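 active means mean inhibition across valid replicates above about 55%, limit read from the data; inconclusive means mean below that limit but half or more replicates reach it; inactive means mean below it, under half of replicates reach it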;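 further: signal also drops with host cell toxicity which is not excluded here; 0% = plate median of DMSO wells and 100% = zero luminescence signal; higher percent means less beta-gal luminescence so fewer parasites; stock transfer was 50 nL into about 50 µL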
# Beta apoptosis: inhibitors of cytokine-induced beta cell apoptosis, primary screen, luminescence. INS-1E cytokine-induced death, ATP luminescence, 48 h; percent of positive-control rescue, neutral wells zero. actives 0.8% (n = 300,000). protection from apoptosis, % (concentration not given with the values). AID 435005, 2010;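 active means all replicates at 75% or more, or half of them and the mean; inconclusive means half reach 75% but not the mean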;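 further: 0% = cytokine-treated negative control wells and 100% = positive control rescue; higher means more ATP so stronger rescue from cytokine killing; wells of about 40 µL received 100 nL stock; the first replicate is given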
# Calb FLC: C. albicans growth inhibition with fluconazole, primary screen, CaCi-2 strain, Alamar Blue fluorescence | growth inhibition, % (no concentration beside the values) | AID 1979, 2009 | C. albicans CaCi-2 (fluconazole-resistant clinical isolate) + fluconazole, 48 h | actives 0.57% (n = 300,000);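 active means most replicates above 75%; inconclusive means exactly half above 75%; inactive means most below 75%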;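 further: all wells also contain fluconazole at 8 µg/ml as a sub-toxic cotreatment; 0% = median of DMSO wells and 100% = median of geldanamycin control wells; wells of about 8 µL received 7.5 nL stock; the first replicate is given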
# AF4-AF9 inh: inhibitors of AF4 peptide binding to AF9, primary screen, biochemical, AlphaScreen, biotin-AF4 peptide, FLAG-AF9, single point; actives 0.47% (n = 350,000); inhibition, % at 10 µM; AID 651704, 2012;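 active means every replicate reaching a set inhibition limit, whatever the replicate mean, cut at about 25% in these data; inconclusive means mean inhibition reaches that limit but some replicates miss it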;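 further: 0% = plate neutral control median and 100% = total signal loss; the record names both 10 and 1 µM as test concentration; the first replicate is given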
# Target sequence (P42568 whole entry, looked up): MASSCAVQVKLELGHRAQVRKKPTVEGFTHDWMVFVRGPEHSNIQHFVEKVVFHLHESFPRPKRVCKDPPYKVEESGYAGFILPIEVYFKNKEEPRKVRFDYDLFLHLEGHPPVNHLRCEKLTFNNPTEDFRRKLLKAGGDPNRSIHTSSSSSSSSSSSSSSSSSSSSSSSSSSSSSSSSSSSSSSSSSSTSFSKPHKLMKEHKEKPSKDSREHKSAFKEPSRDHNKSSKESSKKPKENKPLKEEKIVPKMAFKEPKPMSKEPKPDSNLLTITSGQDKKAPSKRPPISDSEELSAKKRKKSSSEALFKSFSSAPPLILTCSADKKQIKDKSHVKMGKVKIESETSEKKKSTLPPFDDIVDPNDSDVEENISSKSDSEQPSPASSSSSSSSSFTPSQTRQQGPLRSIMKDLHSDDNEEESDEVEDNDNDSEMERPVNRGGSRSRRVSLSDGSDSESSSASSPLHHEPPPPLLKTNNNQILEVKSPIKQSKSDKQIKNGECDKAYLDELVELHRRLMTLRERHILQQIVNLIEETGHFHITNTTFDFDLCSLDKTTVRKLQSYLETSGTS
# RanGTP-Imp inh: inhibitors of RanGTP-importin-beta interaction, primary screen, biochemical, FRET, CFP-Ran, YFP-importin-beta, homogeneous; cell-free CFP-Ran/YFP-importin-beta FRET ratio; Ran GTPase (GTP-bound) - importin-beta complex; inhibition, % (test concentration not listed); actives 1.1% (n = 300,000);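 active means most replicates above 15%; inconclusive means exactly half above 15%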;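 further: 0% = DMSO wells and 100% = Ran loaded with GDP instead of GTP; wells of about 40 µL received 100 nL stock; the first replicate is given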
# Ecoli rRNA inh OD600: also measured in Ecoli rRNA inh; calls as there; OD600 change, %; measured here: OD600 growth;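 optical density of the mix in the first replicate; 0 = DMSO median and -100 = no signal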
# Ecoli rRNA inh RFP: second read-out of Ecoli rRNA inh, no call of its own (marks repeat the call); RFP signal change, %; measured here: RFP humanized mutant strains;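 first replicate; 0 = DMSO median and -100 = no signal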
# The depositor's hits bear a star; i = inactive; ? = inconclusive; . = no result given. Only part of the results is shown; rates above refer to the full screens.
# Fields – Ecoli rRNA inh	Ecoli rRNA inh OD600	Ecoli rRNA inh RFP	ALR inh	FGF22 binding	T cruzi inh	Beta apoptosis	Calb FLC	AF4-AF9 inh	RanGTP-Imp inh
- COc1ccc(S(=O)(=O)NCC2CCCN(C(=O)C3CCCC3)C2)cc1 (stereo not given)
→ -5	-10	-0.9	1	i	-10	-4	7	-1.1	7.7
- COc1ccc(NC(=O)c2ccc(Cl)cc2)c[n+]1[O-]
→ 1	8	-5.3	-6	i	-11	-2	-4	2.1	-0.6
- CCOc1ccc(-n2cnc3sc4c(c3c2=O)CCCC4)cc1
→ 8	11	3.1	-5	i	-6	-2	7	-0.5	-0.7
- COc1cc(Cc2cc(N)nc(N)n2)cc(OC)c1OC
→ -49	-72	-15	-25	i	-14	-3	-1	-1.3	-1.8
- CCOc1ccccc1NC(=O)CS(=O)(=O)c1cn(CC(=O)N2CCOCC2)c2ccccc12
→ 3	4	-1.2	-5	i	5	-2	-11	0.0	0.3
- Cc1ccc(S(=O)(=O)N(C)C)cc1NC(=O)COC(=O)c1sc2cc(Cl)ccc2c1Cl
→ 2	-4	-0.7	-2	i	-10	-2	0	-1.0	-1.4
- COc1cc(C(=O)Nc2cccc(-c3nc4cc(C)ccc4o3)c2)cc(OC)c1OC
→ .	.	.	-3	i	9	3	24	-2.8	4.8
- CCCOc1ccc(/C(CC)=N/NC(=O)C2(C)CC2(Br)Br)cc1 (stereo not given)
→ .	.	.	-1	.	6	-4	-4	.	1.2
- O=C(CN1C(=O)C2CCCCC2C1=O)Nc1nc2ccc(F)cc2s1 (stereo not given)
→ -10	-19	3.0	-1	i	-9	-3	2	11	4.9
- COc1cc2c(cc1OC)C(C(=O)Nc1cc(C)c(OC)c(C)c1)CC(=O)N2 (stereo not given)
→ 0	2	-3.0	-6	i	-20	.	1	-15	-1.9
- Fc1cccc(CCN2CCNC[C@@H]2CC2CCCCC2)c1
→ -2	-12	8.3	-1	i	.	0	.	9.0	.
- Cc1cc(NC(=O)C2CCCO2)ccc1Br (stereo not given)
→ -1	-2	-5.7	1	.	8	4	-5	-9.4	-4.2
- CCc1ccc(OCC(=O)N/N=C2\CC(=O)c3ccccc32)cc1
→ .	.	.	-61	.	-13	12	10	.	-6.5
- Cc1ccc(OCC(=O)NNC(=O)Cn2nnc(-c3ccccc3)n2)cc1
→ 8	0	0.3	2	i	-18	4	-1	-5.1	-3.2
- O=S(=O)(NCC(c1cccnc1)N1CCN(Cc2ccccc2)CC1)c1ccc(Cl)cc1 (stereo not given)
→ 3	-1	-0.7	-5	i	58*	0	0	10	-1.8
- CN(C)CCN1CC(O)=C(c2nc3ccccc3s2)C1=N
→ 3	2	1.4	.	i	47	-5	-5	-6.0	?
- COc1ccc(NC(=O)C(C)N(c2ccc(C)cc2)S(C)(=O)=O)c(OC)c1 (stereo not given)
→ .	.	.	-5	.	0	0	-7	.	0.3
- CCOc1ccccc1CNC(=O)c1cc2occc2n1C
→ 2	1	4.9	40	i	-4	.	-14	6.2	-1.9
- CCC(C)c1ccccc1N1CC(C(=O)NCCc2ccc(OC)c(OC)c2)CC1=O (stereo not given)
→ 8	9	3.7	.	i	-5	-3	1	-2.4	-2.8
- O=C(CC1CCCCC1)NCc1ccccc1Cl
→ 7	6	0.4	-14	i	1	4	-23	-5.4	-5.0
- O=C(NCc1ccc(OC(F)(F)F)cc1)c1cccc2c1C(=O)c1ccc(N3CCCC3)cc1S2(=O)=O
→ 5	10	-8.8	30	i	.	13	.	-1.4	.
- CC1CCC(NC(=O)Nc2cccs2)CC1 (stereo not given)
→ .	.	.	98*	.	-4	-4	-11	.	-1.6
- CN(Cc1nc2c(s1)CCCC2)C(=O)CCc1nnc(-c2ccc3c(c2)OCO3)o1
→ -4	8	-4.4	0	i	1	-2	-2	3.2	0.9
- Cc1cc(NC(=O)COc2ccccc2)n(-c2ccccc2)n1
→ .	.	.	-4	.	-8	-1	13	.	-1.1
- CCCCOc1ccc(NC(=O)c2cc(F)c(F)cc2Cl)cc1
→ .	.	.	1	.	13	4	-2	.	2.7
- COc1ccc(N(C(=O)Cn2nnc(-c3ccccc3F)n2)C(C(=O)NCC2CCCO2)c2ccc(Cl)cc2)cc1 (stereo not given)
→ 13	2	-6.4	-4	i	-8	-7	-2	-1.4	-0.1
- Cc1nc(-c2ccccc2)sc1-c1n[nH]c(=S)n1C
→ .	.	.	92*	.	14	-2	13	.	-0.4
- Cc1ccccc1CN1CCSc2sccc2C1=O
→ -32	-41	-11	-4	i	16	-4	-12	-1.7	1.0
- CC1CCCN(C(=O)c2cc(-c3cccs3)nc3ccccc23)C1 (stereo not given)
→ -29	-48	-6.4	-10	i	.	-10	.	3.8	.
- CCOC(=O)/C(C#N)=C/c1ccc(N2CCCCC2)cc1
→ .	.	.	5	.	-7	1	-16	.	91*
- CCCOc1ccc(C(=O)NNC(=S)NC(=O)c2ccccc2)cc1
→ -53	-74	-17	22	i	19	28	71	1.5	0.2
- CC1=NNC(=O)C1CCC(=O)N/N=C(\C)c1ccccc1 (stereo not given)
→ 9	5	-0.6	13	.	9	-4	1	-0.3	-0.1
- N#Cc1ccc(N2CCOCC2)c([N+](=O)[O-])c1
→ 6	5	-3.2	0	i	7	-6	-8	0.5	-3.7
- Brc1ccc(-c2nnc(-c3cccnc3)c3conc23)cc1
→ .	.	.	-6	.	-13	-3	1	.	-1.9
- CCCN1CCC(NC(=O)C2CCN(C(C)=O)CC2)CC1
→ 12	12	-0.1	1	i	-8	-4	0	1.0	4.7
- C[C@H](NC(=O)N1CCn2c1nc1ccccc12)C(=O)NCc1ccc(F)cc1
→ 4	6	-3.1	0	i	-11	-1	4	-9.4	1.3
- Cn1ccc(NC(=O)Nc2ccc(Cl)cc2)n1
→ 8	12	-0.7	21	i	-4	1	7	-4.5	1.5
- O=C(Nc1nnc(C2CC2)o1)c1ccc(S(=O)(=O)N2CCCc3ccccc32)cc1
→ -55	-74	-17	96*	i	59*	27	?	2.6	-0.8
- COc1cc(C)c(S(=O)(=O)N2CCOCC2)c(C)c1C
→ 4	1	-2.3	1	i	-3	-3	-8	-8.3	-1.6
- Nc1nc(-c2ccc(Cl)cc2)cc(C(F)(F)F)n1
→ .	.	.	6	.	2	-3	-43	.	8.2
- Nc1cccc(Oc2ccc3c(c2)C(=O)N(CC2CCCO2)C3=O)c1 (stereo not given)
→ 13	6	1.2	-4	i	.	.	22	0.4	7.2
- COc1ccccc1OCC(=O)Nc1ccc2c(c1)OCCO2
→ -8	-12	-4.8	-8	i	3	5	-2	-2.9	4.7
- CCCCOC(=O)c1ccc(NC(=O)CSCc2n[nH]c(=O)[nH]2)cc1
→ .	.	.	16	.	0	-3	-9	.	4.4
- C=C(C)C(=O)Nc1cccc(C2=NOC3(C2)C[C@@H](C(N)=O)N(C(=O)CCCCC)C3)c1 (stereo not given in full)
→ -5	12	-4.1	-1	i	-13	-3	0	-79	-1.2
- COc1ccc(CN=C(C)c2c(C(F)(F)F)[nH]n(-c3nc4ccccc4s3)c2=O)cc1
→ .	.	.	.	.	5	13	-19	.	0.5
- Cc1ccsc1C(=O)N1CCCC(CCC(=O)N2CCN(c3ccccn3)CC2)C1 (stereo not given)
→ -2	1	-1.6	3	i	1	-4	-38	0.5	8.6
- Cc1nn(CC(=O)NCCc2ccccc2)c(=O)c2ccccc12
→ .	.	.	-5	.	2	0	2	.	-0.5
- CCN1C(=NCCOC)N[C@@H](CCc2ccccc2)[C@H](C(=O)OC)[C@H]1C
→ -3	-5	-4.6	5	i	-40	-2	-2	-7.8	5.9
- OCCN(CC(O)COc1ccccc1)CC(O)Cn1ccc2ccccc21 (stereo not given)
→ -6	-10	-0.4	.	i	-22	-4	-4	0.4	4.1
- CCCCC(=O)NCCc1ccc(S(N)(=O)=O)cc1
→ .	.	.	-11	.	-12	-2	-9	.	?
- Cc1ccc(CNS(=O)(=O)c2ccc3c(c2)NC(=O)C(C)S3)cc1 (stereo not given)
→ -34*	-25*	-4.3*	-4	i	-4	-6	2	-5.2	-6.2
- COc1cccc(NC(=O)CN(C)C(=O)c2cccc(S(=O)(=O)N3CC4(C)CC3CC(C)(C)C4)c2)c1 (stereo not given)
→ 4	12	-1.4	-1	i	.	-9	.	-2.7	.
- COc1cc(/C=C/C(=O)/C=C(O)/C=C/c2ccc(O)c(OC)c2)ccc1O
→ 7	7	-2.0	0	i	.	3	.	0.9	.
- Cc1cc(C)cc(NC(=S)N(CCN(C)C)C(C)c2cccnc2)c1 (stereo not given)
→ 5	5	0.4	5	i	21	-7	-5	0.5	-1.2
- COc1ccc(CCNC(=O)COC(=O)Cn2cnc3ccccc3c2=O)cc1
→ -1	-9	8.4	-5	i	8	2	1	1.5	9.8
- Cc1cc([N+](=O)[O-])nn1Cc1noc(C(=O)NCc2ccc3c(c2)OCO3)n1
→ -7	18	-1.5	1	i	9	0	-10	-4.0	-3.8
- Cc1cccn2c(=O)c3cc(C(=O)NCC4CCCO4)c(=N)n(Cc4ccc(F)cc4)c3nc12 (stereo not given)
→ -1	-1	-5.4	-2	i	21	15	-4	0.5	188*
- O=S(=O)(NC1c2cccc3cccc(c23)C1Sc1ncccn1)c1ccccc1 (stereo not given)
→ -24*	-15*	-0.3*	-8	i	24	.	0	0.4	2.6
- CCN(CC(=O)Nc1ccccc1C(F)(F)F)C(=O)C1CCN(C(=O)Nc2ccccc2)CC1
→ .	.	.	8	i	.	-2	.	-4.6	.
- COc1cccc(NC(=O)CSc2nc(C3CC3)nc3ccccc23)c1
→ 3	8	-0.5	-8	i	9	-2	-8	-0.4	-3.6

# Later entries.
# Fields – Ecoli rRNA inh	Ecoli rRNA inh OD600	Ecoli rRNA inh RFP	ALR inh	FGF22 binding	T cruzi inh	Beta apoptosis	Calb FLC	AF4-AF9 inh	RanGTP-Imp inh
- CC(C(=O)NCC1CCCO1)n1cc([N+](=O)[O-])cn1 (stereo not given)
→ 5	7	-3.7	-2	i	-9	2	-4	10	-1.1
- COc1ccc2c(N)c(C(=O)NN)[nH]c2c1
→ .	.	.	1	i	0	.	2	0.7	0.8
- Cc1ccc(S(=O)(=O)Cc2ccc(C(=O)N3CCc4ccccc4C3)o2)cc1
→ -13	-6	-5.1	71	i	5	.	6	3.7	-3.4
- O=C(NC1CCCCC1)c1ccccc1NC(=O)C1CC1
→ .	.	.	-4	.	-11	0	-2	.	-1.3
